Bioassay records: PubChem BioAssay, ICCB-Longwood Screening Facility, Harvard Medical School
MbtI inh = MbtI salicylate synthase inhibition. P9WFX0. purified MbtI enzyme, fluorescence intensity read-out. inhibition, %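 (about 17 µg/mL by stock and volumes)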. 100,000 compounds, 0.89% hits. AID 493033;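 active means above 50% in both replicates, above 80% if mildly self-fluorescent; inactive means the rest, strongly fluorescent compounds included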;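 further: 0% = mean of negative and 100% = mean of positive controls; one replicate is shown; some compounds called inactive have numbers as strong as hits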
Target sequence (P9WFX0 whole entry, looked up): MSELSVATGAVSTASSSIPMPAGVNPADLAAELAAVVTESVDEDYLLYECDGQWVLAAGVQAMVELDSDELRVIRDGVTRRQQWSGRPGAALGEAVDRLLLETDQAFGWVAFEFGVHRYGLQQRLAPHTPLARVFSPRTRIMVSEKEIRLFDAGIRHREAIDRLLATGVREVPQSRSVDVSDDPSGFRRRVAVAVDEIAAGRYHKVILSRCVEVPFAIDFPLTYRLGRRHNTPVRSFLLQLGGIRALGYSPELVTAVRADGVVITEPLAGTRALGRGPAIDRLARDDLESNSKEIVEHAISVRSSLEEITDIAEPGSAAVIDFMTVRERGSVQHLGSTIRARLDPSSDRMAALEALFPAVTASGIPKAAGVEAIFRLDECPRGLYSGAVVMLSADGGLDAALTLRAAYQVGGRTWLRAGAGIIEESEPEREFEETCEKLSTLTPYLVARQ
An asterisk follows results filed as active; i = inactive. This is a subset. The share of hits here may be higher or lower than overall.

SMILES	MbtI inh
O=C(O)c1ccc(-c2ccc(O)c(F)c2)cc1	30
CCOC(=O)CC(=O)Nc1ccc(C(=O)OCC)cc1	-7
CCN(CC)Cc1cc(NC(C)=O)ccc1O	-8
CC(=O)Oc1ccc(OCc2ccccc2)cc1	5
CCN(CC)S(=O)(=O)c1ccc(C(=O)Nc2ncn(Cc3ccccc3)n2)cc1	-1
CC1CCN(c2nc(-c3ccccc3)cs2)CC1	22
CN1CCC(OC(=O)C2c3ccccc3Oc3ccccc32)CC1	4
CC1CCc2cc(F)ccc2N1C(=O)CCC(=O)O (stereo not given)	-2
CCSc1nc(O)cc(=O)n1-c1ccc(OC)cc1	-12
O=C1c2ccccc2C(=O)N1c1ccc(O)cc1	-4
COC(=O)C1=C(C)NC2=C(C(=O)CCC2)C1c1cc2c(cc1Br)OCO2 (stereo not given)	-10
CCC(=O)Nc1nc2c(s1)C(=O)CC(c1ccc(OC)cc1)C2 (stereo not given)	-2
CCc1ccc(NC(=O)CCNS(=O)(=O)c2cccc3nsnc23)cc1	-2
O=C(O)c1ccc(-c2ccco2)n1Cc1ccccc1	-1
CC(C)C(NC(=O)C1CCCCC1)C(=O)Nc1ccccn1 (stereo not given)	-4
CCN(CC)c1ccc(CNc2ccc(Br)cn2)cc1	-16
COc1ccc(CCNC(=O)CCCn2ncn3c(cc4occc43)c2=O)c(OC)c1	-14
O=C(O)C(Cc1cccs1)c1ccccc1 (stereo not given)	-13
COc1cc(NC(=O)CCc2ccccc2)nc(OC)n1	-8
CCSc1nc2c(c(=O)n1Cc1ccccc1)SC(C)C2 (stereo not given)	-13
O=C(Nc1ccccc1C(=O)O)c1ccccc1	55*
O=C(O)C1(NCc2ccccc2Cl)CCCCC1	-1
COc1ccc(N2C(=O)CC2(C#N)c2ccc(OCc3ccccc3)cc2)cc1 (stereo not given)	-12
COC(=O)Cn1cccc1C(=O)c1ccccc1	-1
COC(=O)C(C)Sc1ncnc2c1c(-c1ccccc1)cn2-c1ccc(OC)cc1 (stereo not given)	12
Nc1ccc(Oc2ccc3nc(-c4ccc(N)cc4)[nH]c3c2)cc1	-462
O=C(CNC(=O)c1cccs1)NC1CCCC1	-9
CN(C)c1c[nH]c(=O)[nH]c1=O	-12
COC(=O)CN(C(C)=O)C(c1ccccc1)c1cc(Br)ccc1NC(=O)c1ccccc1Cl (stereo not given)	-10
COc1ccc(NC(=O)C2(N(C)C(=O)c3ccc(-n4cnnn4)cc3)CCCCC2)cc1	-1
COc1nc(N2CCCC2)[nH]c(=O)n1	-18
CC1CCCCN1C(=O)CCS(=O)(=O)c1cccc2nonc12 (stereo not given)	-1
CN(C)CCNC(=O)c1ccc(/C=N/O)nc1	0
CCCOc1nnc(-c2ccc(C)c(S(=O)(=O)N(C)C)c2)c2ccccc12	-4
CCOc1ccccc1NC(=O)C(CC(C)C)NC(=O)C1CCCCC1 (stereo not given)	-6
O=C(NC1CCCCC1)C1c2ccccc2C(=O)N2CCc3ccccc3C12 (stereo not given)	-4
O=C(O)c1ccc(C(=O)NCc2ccco2)c(C(=O)O)c1	-7
CCN1CCN(C(=O)Cc2c(C(=O)O)[nH]c3ccccc23)CC1	7
O=C(NCCC1=CCCCC1)c1cc2c(=O)[nH]c3ccccc3c2s1	22
O=c1c2cnn(-c3ccccc3)c2nc(-c2ccco2)n1-c1ccccc1	-7
CC(=O)N(C)C1(c2nnnn2CCOC(=O)Nc2ccc(Cl)cc2)CCCCC1	0
COC(=O)c1cc(=O)[nH]c2ccccc12	-6
CCOC(=O)c1oc2ccccc2c1CN1CCC(C(N)=O)CC1	-9
OC1CCCCC1N1CCC(c2ccccc2)C1 (stereo not given)	-5
Cc1ccc(-c2n[nH]c(=S)o2)cc1	9
O=C(NCCc1ccccc1)/C(=N\O)c1ccccc1	-3
c1ccc(C2CNCCc3ccccc32)cc1 (stereo not given)	-9
CC1CN(C2CCN(C3CC4CCC3C4)CC2)CC(C)O1 (stereo not given)	-13
c1ccc(N(c2ccccc2)c2nc(-n3ccnc3)nc(-n3ccnc3)n2)cc1	20
CCOc1ccc(OCCSc2nc3ccccc3n2CC(O)CO)cc1 (stereo not given)	-14
CC(C)C12CN(C(=O)c3ccccc3)CC(C(C)C)(CN(C(=O)c3ccccc3)C1)C2=O	-11
O=c1cc(Nc2ccccc2)c2ccccc2o1	4
O=C(CCCOc1ccc(Cl)cc1)N1CCOCC1	-12
CC1(C)CC(=O)C2=C(C1)N=C1c3ccccc3C(=O)C1C2c1ccc(O)c(O)c1 (stereo not given)	85*
O=C1C(Sc2ncn[nH]2)=C/C(=N/S(=O)(=O)c2ccc(Cl)cc2)c2ccccc21	95*
CSc1n[nH]c(-c2ccccc2)n1	33
CC1(O)CC(=O)N(c2ccccc2)O1 (stereo not given)	4
CC1CCN(S(=O)(=O)N2CCC(C(=O)O)CC2)CC1	-9
O=C(CCCN1C(=O)c2ccccc2C1=O)Nc1ccc(S(=O)(=O)N2CCOCC2)cc1	1
C=CCn1c2ccccc2n2ncnc12	-9
More compounds.
SMILES	MbtI inh
O=C(c1ccc(Cl)cc1)C(Oc1ccc(Cl)cc1)n1cncn1 (stereo not given)	3
C=CCC1c2cccc(C(=O)O)c2C(=O)N1c1cccc(C)c1 (stereo not given)	-14
COc1ccc(NC(=O)CC(c2ccc(F)cc2)c2ccco2)cc1 (stereo not given)	-12
COc1ccc(CCN2C(=O)c3ccccc3C2(O)c2ncc[nH]2)cc1OC (stereo not given)	-16
Cc1cc(C)nc(Nc2ccccc2Br)n1	-10
O=C(c1ccccc1)N1CCC(O)C2CCCCC21 (stereo not given)	-13
CCCn1cc(/C=N/O)c(C)n1	-8
CC(C)NS(=O)(=O)c1ccc(OCC(=O)NCc2ccco2)cc1	-12
C=CCn1c(C(O)c2ccccc2)nc2ccccc21 (stereo not given)	-5
CC1(C)CC2(CC(C)(C)N1)OC(=O)N(C1CC1)C2(C)O (stereo not given)	-17
Cc1nc2c(C#N)c(C)[nH]n2c(=O)c1Cc1ccccc1	-61
Cc1oc(CSCc2cc(C(=O)O)c(C)o2)cc1C(=O)O	1
Cc1cc(=O)[nH]c(N2CCOCC2)n1	-10
COc1cccc(CNCc2cccnc2)c1OCc1ccccc1F	1
COc1ccccc1CC(=O)c1ccc(O)cc1O	3
CC(=O)Oc1cc2c(C(=O)NCCN3CCOCC3)c(C)oc2c2ccccc12	-3
CCOC(=O)N1CCC(NC(=O)c2cc(C(=O)NC3CCCC3)ccc2CO)CC1	-12
O=C1c2ccccc2-c2nn(C(=O)c3cccnc3)c3cccc1c23	-9
S=c1sc2c(Cl)ncnc2n1-c1ccccc1	-9
NC(=O)c1cccc(NC(=O)c2ccccc2I)c1	-4
COc1cc(COc2ccc3c(C)c(CC(=O)O)c(=O)oc3c2C)cc(OC)c1OC	-42
COc1cc(C)nc(N(C)S(=O)(=O)c2ccccc2Cl)n1	-5
NC(=O)c1ccccc1NC(=O)c1ccc(C(=O)N(C2CCCCC2)C2CCCCC2)cc1	5
COc1ccc(NC(=O)CN2C(=O)C3C4C=CC(C4)C3C2=O)cc1 (stereo not given)	-6
O=C(O)CC(c1ccccc1)c1ccc2c(c1)OCO2 (stereo not given)	0
C=CCC1c2cccc(C(=O)O)c2C(=O)N1c1ccc(OC)cc1 (stereo not given)	-3
CN(C)C(=O)c1cc(-c2ccccc2)nc2ccccc12	-4
CC(CN1CCN(Cc2ccccc2)CC1)OC(=O)c1ccco1 (stereo not given)	-14
CC1(C(=O)c2ccccc2)C2c3cc(Br)ccc3OC(=O)C21C(=O)N1CCOCC1 (stereo not given)	-8
OCCOc1nnnn1-c1ccccc1	-6
Cc1nn(C(=O)c2cccs2)c(N)c1-c1ccccc1	-11
CCOC(=O)c1nn(-c2ccc(OC)cc2)c(=O)c(C#N)c1C	-12
C=Cn1cccc1-c1cccs1	13
O=C(O)C1(c2cccc(Cl)c2)CCC1	-11
CCCn1c2ccccc2c2cc(C(=O)O)ccc21	-8
COC(=O)c1cc(CN2CCOCC2)ccc1O	-42
CC(C)(O)C1(C)c2ccccc2CCN1Cc1ccccc1 (stereo not given)	-9
c1ccc(-c2csc(N3CCNCC3)n2)cc1	-7
O=C(COc1ccccc1F)Nc1nc(-c2cccs2)c(NC(=O)c2ccccc2)s1	1
O=C(c1ccccc1)c1ccncc1	-5
CC(C)CC(NC(=O)C1CCCCC1)C(=O)N1CCC2(CC1)OCCO2 (stereo not given)	-7
O=C(NC1(C(F)(F)F)Oc2ccc(Cl)cc2O1)N1CCCCC1 (stereo not given)	40
COc1cccc(CNCCc2cccc(F)c2)c1	-8
NC1=NC1C(=O)Nc1ccccc1 (stereo not given)	-2
COc1ccc(CN2CCCC(C(=O)N3CCCC3)C2)c(OC)c1OC (stereo not given)	1
NCCCN1CCN(Cc2ccccc2)CC1	-7
CNC(=O)/C(=N\O)c1ccccc1	-2
C/C=C/C1OCC2(CO)C(C)C=C(C)C1C2C (stereo not given)	-15
O=C1CCCC2=C1C(c1ccco1)N(C(=O)c1ccccc1)c1ccccc1N2 (stereo not given)	-8
Cc1ccccc1OCC(=O)Oc1ccc(-c2cnc3ccccc3n2)cc1	-3
CC1CN(C(=O)c2ccccc2)OC(c2cccs2)O1 (stereo not given)	5
CCC(C)SCc1cc(C(=O)O)oc1C (stereo not given)	-9
Cn1cc(SCC(=O)O)c2ccccc21	-42
OCC(CO)(CO)c1ccccn1	1
CC1CCN(CCCN)CC1	1
COc1ccc(N2C(=O)c3nccnc3C2=O)cc1Cl	11
Cc1cc(C)c2c(n1)SCC(=O)N2CC(=O)O	-9
O=C(CN1C(=O)c2ccccc2C1=O)Nc1ccc(S(=O)(=O)Nc2ncccn2)cc1	2
Cc1nc2ccccc2nc1OCC(=O)c1ccc(Cl)cc1	-13
CC1(C)CC(NC2CC(C)(C)NC(C)(C)C2)CC(C)(C)N1	-10
Continued.
SMILES	MbtI inh
CCN(CC)c1ccc(-c2cc(C#N)on2)cc1	-8
COc1cc(C(C#N)N2CCCCCC2)ccc1O (stereo not given)	-8
CCOC(=O)c1ccccc1NC(=O)c1cc2ccccc2o1	51
Clc1ccc2[nH]c3c(c2c1)CN(Cc1ccccc1)CC3	5
CN(C)CCSc1nc2ccccc2n1CCc1ccccc1	-5
Cc1c(Cl)cccc1-c1ccc(C(=O)Nc2ccccn2)o1	25
N#Cc1c(-c2ccccc2)nc2n(c1=O)CCS2	-2
C/C(=N\O)C1/C(=N/O)CC2C1C2(C)C (stereo not given)	-8
O=C(O)c1ccc(CN2C(=O)CSC2=S)cc1	-5
CC(C)(C)S(=O)(=O)c1ccc(N)nc1	-44
Cn1cccc1C1=NCCO1	-12
CC(O)CCc1nc2ccccc2[nH]1 (stereo not given)	-11
Cc1ccc(NC(=O)c2cnn(-c3ccccc3)c2NC(=O)c2ccco2)cc1	2
O=C(CC1CS(=O)(=O)CC1CC(=O)NCc1ccccc1)NCc1ccccc1 (stereo not given)	-4
COC(=O)c1cc(NC(=O)CSCCc2ccccn2)cc(C(=O)OC)c1	-11
COCCN1CCC(=O)C(C)C1C (stereo not given)	-7
CCOc1ccc(C)cc1-n1nc2ccccc2n1	i
N=c1c2c3c(sc2ncn1CCO)CCCC3	-9
CC1(C(=O)c2ccccc2)C2c3cc(Br)ccc3OC(=O)C21C(=O)c1ccco1 (stereo not given)	-11
CC(C)OC(=O)c1ccc(NC(=O)c2ccc(Cn3cc(Br)cn3)cc2)cc1	8
Nc1nnc(-c2ccccc2SCc2ccc(F)cc2)s1	17
CC(=O)N(C(C)=O)c1c(N2CCCC2)c2ccccc2oc1=O	11
N=c1ncn(Cc2ccccc2)c2nc(SCC(=O)O)[nH]c12	-12
Cn1c(SCC(=O)c2ccccc2)nc2c1c(=O)[nH]c(=O)n2C	-6
CS(=O)(=O)n1c(=O)oc2ccccc21	-9
O=C1Nc2ccccc2SC(c2ccccc2)C1O (stereo not given)	-26
CCC1COC(c2cccn2C)=N1 (stereo not given)	-8
CCOC(=O)C1CCCN(CCN(C)C)C1 (stereo not given)	1
O=c1[nH]cc(N(CCO)CCO)c(=O)[nH]1	-5
CC(=O)N(Cc1cccs1)C1(C(=O)NC2CCCC2)CCCCC1	0
CCC(=O)N(CCC(c1ccccc1)c1ccco1)Cc1ccc(N(C)C)cc1 (stereo not given)	10
OCCc1ccc(-c2ccc(Cl)cc2)o1	64
